Mtb growth = Mycobacterium tuberculosis H37Rv growth inhibition, cell based, confirmatory dose response (AID 1949); most inactive calls were filed without a number and no value below 0 was filed; one-dose inhibition, % at 10 µg/mL; IC50 in µg/mL for titrated hits; actives 1.6% (n = 100,000);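 active = confirmed in a dose series; inconclusive = about 50% or more but not retested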;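 also: bacteria grown 7 days with compound before Alamar blue readout; 0% = untreated bacteria and 100% = reference antibiotic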
Active calls of the source: *. This is a subset, so the mix of outcomes need not match the whole.

For CN(CC(=O)N1CCN(Cc2ccccc2)CC1)S(=O)(=O)c1ccc(F)cc1 the results were Mtb growth inactive.
Screening COc1cccc(C(=O)N2CCN(C3CC4CCC3C4)CC2)c1OC (stereo not drawn) returned Mtb growth inactive.
For CC(NC(=O)CN1CCCCC1)C1CC2CCC1C2 (stereo not drawn) the results were Mtb growth inactive.
`COC(=O)c1cc(NC(=O)Nc2ccccc2)ccc1Cl` gave Mtb growth inactive.
Screening COc1ccc(CNc2nc(SC)n[nH]2)cc1OC returned Mtb growth inactive.
Screening Cc1cc(Cl)ccc1NC(=O)C1CCN(C(=O)Cc2ccccc2)CC1 returned Mtb growth inactive.
For CCOc1ccc(C(=O)Nc2ccc(N3CCN(C)CC3)cc2)cc1 the results were Mtb growth inactive.
`CC(C)C(NCCC(O)c1ccc(Br)cc1)C(=O)O` (stereo not drawn) gave Mtb growth inactive.
`CCCc1cc(=O)oc2c(C)c(OCC(=O)Nc3ccc(C)cc3)ccc12` gave Mtb growth inactive.
CN(CC(=O)Nc1cc(Cl)ccc1O)S(=O)(=O)c1ccc(Cl)cc1 was read as Mtb growth inactive.
Screening CCC(=O)Nc1ccc(S(=O)(=O)Nc2ccccc2OC)cc1 returned Mtb growth inactive.
For Cc1ccsc1C1C(C(=O)c2ccco2)=C(O)C(=O)N1Cc1ccco1 (stereo not drawn) the results were Mtb growth 4%.
O=C(N/N=C/c1ccncc1)c1n[nH]c2c1CCCC2 was read as Mtb growth 1%.
Screening CC(C)c1nc(N2CCN(C(=S)NCc3ccccc3)CC2)c(C#N)c2c1CCCC2 returned Mtb growth inactive.
Cn1c(O)c(N=NC(=O)c2ccccc2)c2ccccc21 was read as Mtb growth inconclusive.
For O=C(Nc1sc2c(c1C(=O)NCc1ccco1)CCCC2)c1ccccc1[N+](=O)[O-] the results were Mtb growth inactive.
`Cc1ccccc1C(=O)Nc1nc2ccccc2[nH]1` gave Mtb growth inactive.
CC(=O)N1N=C(c2cccnc2)CC1c1ccccc1O (stereo not drawn) was read as Mtb growth inactive.
`c1ccc2c(Cn3cnc4ccccc43)cccc2c1` gave Mtb growth 33%.
For CCC(C)(C)c1ccc(OCCCCN(C)C)cc1 the results were Mtb growth inactive.
For COc1ccc([N+](=O)[O-])cc1-n1c(C)cc(C=O)c1C the results were Mtb growth inactive.
Screening O=C(COC(=O)C(O)c1ccccc1)c1ccc2c(c1)OCCO2 (stereo not drawn) returned Mtb growth inactive.
CCOC(=O)CSC1=C(C#N)C(c2ccco2)C(C(=O)OCc2ccccc2)=C(C)N1 (stereo not drawn) was read as Mtb growth 40%.
COc1cc([N+](=O)[O-])ccc1NC(=S)NCc1ccco1 was read as Mtb growth 1%.
Cc1ccc(C(=O)Nc2ccccc2N2CCCCC2)c(Cl)c1 was read as Mtb growth 38%.
Screening O=C(CSc1nnc(COc2cccc3cccnc23)n1-c1ccccc1)c1ccccc1 returned Mtb growth inactive.
CCOc1ccc(C(=O)NCC2(c3ccc(OC)cc3)CCOCC2)cc1OC was read as Mtb growth inactive.
Screening COc1ccc(Nc2nc(-c3cccs3)cs2)c(OC)c1 returned Mtb growth inactive.
Screening O=C1CCCC2=C1C(c1ccccn1)Nc1ccc(C(=O)c3ccccc3)cc1N2 (stereo not drawn) returned Mtb growth inactive.
For Cc1ccnc(NS(=O)(=O)c2cc([N+](=O)[O-])ccc2C)c1 the results were Mtb growth inactive.
O=c1c2ccccc2nc(SCc2cc(F)ccc2F)n1C1CCCC1 was read as Mtb growth inactive.
For O=S(=O)(c1ccc(Cl)cc1)N1CCN(C(=S)NCc2ccco2)CC1 the results were Mtb growth inactive.
Cc1cccc(S(=O)(=O)Nc2cccc(C(F)(F)F)c2)c1 was read as Mtb growth 4%.
CCCC(C)C(=O)N1CCC(Cc2ccccc2)CC1 (stereo not drawn) was read as Mtb growth inactive.
COc1cc(NC(=O)c2c(F)c(F)c(F)c(F)c2F)ccc1-c1cc2ccccc2oc1=O was read as Mtb growth 7%.
OCCn1c(-c2ccc(Br)cc2)nc(=S)c2c1CCCC2 was read as Mtb growth inactive.

Quoted at random: five entries already listed.
Screening COc1ccc(Nc2nc(-c3cccs3)cs2)c(OC)c1 returned Mtb growth inactive.
For Cc1ccnc(NS(=O)(=O)c2cc([N+](=O)[O-])ccc2C)c1 the results were Mtb growth inactive.
Screening O=C(CSc1nnc(COc2cccc3cccnc23)n1-c1ccccc1)c1ccccc1 returned Mtb growth inactive.
OCCn1c(-c2ccc(Br)cc2)nc(=S)c2c1CCCC2 was read as Mtb growth inactive.
CCOc1ccc(C(=O)NCC2(c3ccc(OC)cc3)CCOCC2)cc1OC was read as Mtb growth inactive.

Among those listed so far, these have an NH in an aromatic ring.
Screening COc1ccc(CNc2nc(SC)n[nH]2)cc1OC returned Mtb growth inactive.
O=C(N/N=C/c1ccncc1)c1n[nH]c2c1CCCC2 was read as Mtb growth 1%.
`Cc1ccccc1C(=O)Nc1nc2ccccc2[nH]1` gave Mtb growth inactive.

(list continues)
For COc1cc(C)c(Cl)cc1S(=O)(=O)N1CCN(C)CC1 the results were Mtb growth 3%.
For COc1ccc(C(=O)Nc2c(C)nn(Cc3cccc(C)c3)c2C)cc1 the results were Mtb growth inactive.
Cc1nnc(C)c2c(C)n(-c3ccc(I)cc3)c(C)c12 was read as Mtb growth inactive.
Screening COc1cc(CNC2CCCc3ccccc32)cc(OC)c1OC (stereo not drawn) returned Mtb growth inactive.
Cc1ccc(NC(=O)CCN2CCN(CCO)CC2)cc1C was read as Mtb growth 2%.
Screening NC(=O)C1CCN(C(=O)COc2cccc3cccnc23)CC1 returned Mtb growth 3%.
`Cc1ccc(-c2csc(NC(=O)CSc3nnc(CNC(=O)c4ccccc4F)n3C)n2)cc1` gave Mtb growth inactive.
For Cc1ccc(C(=O)CC2(O)C(=O)N(Cc3ccccc3)c3ccccc32)o1 (stereo not drawn) the results were Mtb growth 2%.
Cc1ccc(F)cc1NC(=O)CSc1nc2ccccc2[nH]1 was read as Mtb growth 1%.
`Cc1cccc(OCc2nnc(SCC(=O)Nc3cc(C)c(C)cc3Br)o2)c1` gave Mtb growth inactive.
CCOC(=O)N1CCN(c2cc3nccnc3cc2F)CC1 was read as Mtb growth inactive.
For CCOC(=O)c1c(NC(=O)C2C3C=CC(C3)C2(C)C(=O)O)sc2c1CCCC2 (stereo not drawn) the results were Mtb growth inactive.
For COc1ccc(CSc2nnc(SC/C=C/c3ccccc3)s2)cc1 the results were Mtb growth inactive.
CCc1cccc(CC)c1NC(=O)c1cccc(NC(=O)C(C)C)c1 was read as Mtb growth inactive.
For COc1cc(OC)cc(C(=O)Nc2cccc(C#N)c2)c1 the results were Mtb growth inactive.
O=C(C(c1ccccc1)N1C(=O)c2ccccc2C1=O)N1c2ccccc2CCc2ccccc21 (stereo not drawn) was read as Mtb growth 25%.
Screening CCc1cccc2c1NC(=O)C2(O)CC(=O)c1cccs1 (stereo not drawn) returned Mtb growth inactive.
`O=C(Nc1nnc(CSCc2cccc(Br)c2)s1)c1ccc([N+](=O)[O-])cc1` gave Mtb growth inactive.
CC1CCCCN1S(=O)(=O)c1ccc(C(=O)Nc2ccc(Br)cc2)cc1 (stereo not drawn) was read as Mtb growth 1%.
O=C(Nc1nnc(Cc2cccc(Br)c2)s1)c1cccs1 was read as Mtb growth 0%.
CNCc1cc(Br)ccc1OC was read as Mtb growth inactive.
`Cc1nn(Cc2c(F)cccc2Cl)c(C)c1NC(=S)Nc1ccc2c(c1)OCO2` gave Mtb growth inactive.
O=c1c2c3c(sc2n2cnnc2n1CCc1ccccc1)CCCC3 was read as Mtb growth 7%.
CCCCc1ccc(NC(=O)C2CCN(S(=O)(=O)c3ccc(OC)c(OC)c3)CC2)cc1 was read as Mtb growth inactive.
`O=C(NC(=S)NCCC1=CCCCC1)c1ccc(Br)o1` gave Mtb growth 22%.
Screening COc1ccc(C(=O)Nc2ccc(N(C)C(C)=O)cc2)cc1[N+](=O)[O-] returned Mtb growth inactive.
For COc1ccc(S(=O)(=O)N(C)CC(=O)Nc2ccc(Br)cc2F)cc1 the results were Mtb growth 7%.
Screening Cc1cc(NS(=O)(=O)c2ccc(NC(=O)c3cccc4ccccc34)cc2)no1 returned Mtb growth inactive.
Screening COC(=O)c1ccc(C)c(NC(=O)C(C)SCc2ccccc2)c1 (stereo not drawn) returned Mtb growth inactive.
For Cc1ccc(Oc2ccc3c(c2)C(=O)N(CC2CCCO2)C3=O)cc1 (stereo not drawn) the results were Mtb growth 1%.
Screening CCOc1cccc2cc(C(=O)N3CCc4ccccc4C3)c(=O)oc12 returned Mtb growth 4%.
`CCCC(=O)c1ccc(N2CCN(C(=O)c3cc(F)c(F)cc3C)CC2)c(F)c1` gave Mtb growth 7%.
Screening Cn1c(COc2ccc(Cl)cc2Cl)n[nH]c1=S returned Mtb growth inactive.
For COc1ccc(OC)c(NC(=O)c2ccc(C(C)(C)C)c(Br)c2)c1 the results were Mtb growth inactive.
CCOC(=O)c1c(NC(=O)c2cc3cccc(OC)c3oc2=O)sc(C)c1C was read as Mtb growth inactive.
O=C(Oc1c(-c2ccco2)oc2ccccc2c1=O)c1cccs1 was read as Mtb growth 49%.
For COc1ccccc1CNS(=O)(=O)N(C)C the results were Mtb growth inactive.
Screening CC(C)CC(C(=O)O)N1C(=O)C2C3C=CC(C4CC34)C2C1=O (stereo not drawn) returned Mtb growth inactive.
COc1cc(OC)cc(N2C(=O)CC(N3CCCCC3C)C2=O)c1 (stereo not drawn) was read as Mtb growth inactive.
`COc1ccc2c(CC(C)N)c[nH]c2c1` (stereo not drawn) gave Mtb growth inactive.
`C=CCN1C(=O)C(O)(CC(=O)c2ccc(OC)c(OC)c2)c2cc(Br)ccc21` (stereo not drawn) gave Mtb growth inactive.
For CCN(CC)C(=O)c1cc(OC)c(OC)cc1OC the results were Mtb growth inactive.
CCn1c(SCC(=O)Nc2ccc(Br)cc2)nnc1-c1cccnc1 was read as Mtb growth inactive.
Screening COc1ccccc1OCc1ccc(C(=O)n2nc(C)c(Cl)c2C)o1 returned Mtb growth inactive.
O=Cc1cccc(OC(=O)c2ccc(Cl)cc2)c1 was read as Mtb growth 42%.
O=C(CN(C1CCCCC1)S(=O)(=O)c1ccccc1)Nc1ccc(F)cc1F was read as Mtb growth inactive.
CC1CCCN(C(=O)c2ccccc2NC(=O)c2ccco2)C1 (stereo not drawn) was read as Mtb growth inactive.
`O=C(O)c1cccnc1SC1CC(=O)N(Cc2ccccc2)C1=O` (stereo not drawn) gave Mtb growth inactive.

Overlap with the part before: 2 entries, then new ones.
CC1CCCN(C(=O)c2ccccc2NC(=O)c2ccco2)C1 (stereo not drawn) was read as Mtb growth inactive.
`O=C(O)c1cccnc1SC1CC(=O)N(Cc2ccccc2)C1=O` (stereo not drawn) gave Mtb growth inactive.
`O=C(NCCCN1CCN(c2ccc(Cl)cc2)CC1)Nc1ccc(F)cc1` gave Mtb growth 9.2µg/mL*.
`CC(C)(Oc1ccc(Cl)cc1)C(=O)O/N=C(\N)c1ccccn1` gave Mtb growth inactive.
For CC(=O)c1cccc(NS(=O)(=O)c2c(Cl)cccc2Cl)c1 the results were Mtb growth inactive.
CCCCOc1ccc(C(=O)CCNC(C(=O)O)C(C)CC)cc1 (stereo not drawn) was read as Mtb growth inactive.
CC1=CC(C)(C)N(C(=O)CSc2ncn[nH]2)c2ccccc21 was read as Mtb growth inactive.
`COc1ccccc1NC(=O)CSCc1cccc(CSCC(=O)Nc2ccccc2OC)c1` gave Mtb growth inactive.
Screening O=C(Nc1ccc2oc(=O)ccc2c1)c1cccc2ccccc12 returned Mtb growth 4%.
COc1ccccc1NC(=O)c1ccc(-c2ccccc2[N+](=O)[O-])o1 was read as Mtb growth 16%.
NC(=O)CSc1noc2nc(-c3ccco3)c3c(c12)CCCC3 was read as Mtb growth 1%.
For O=[N+]([O-])c1cc(Cl)cc(C2=NCCN2)c1 the results were Mtb growth inactive.
For C=CCn1c(SCC(=O)NCc2ccco2)nc2scc(-c3ccccc3Cl)c2c1=O the results were Mtb growth inactive.
For Clc1ccc(COc2ccccc2CNCC2CCCO2)cc1 (stereo not drawn) the results were Mtb growth 4%.
For O=C(CCC1CCCC1)NCc1ccc(CNC(=O)CCC2CCCC2)cc1 the results were Mtb growth inactive.
Cc1ccc(NC(=O)C2CC(=O)NC3=C2C(=O)CCC3)cc1Cl (stereo not drawn) was read as Mtb growth inactive.
Screening COc1cccc(S(=O)(=O)Nc2sc3c(c2C(N)=O)CCCCC3)c1 returned Mtb growth inactive.
Cc1cc(=O)oc2cc(NC(=S)NNC(=O)c3ccc(-n4cccc4)cc3)ccc12 was read as Mtb growth inactive.
Cc1c(Cl)cccc1NS(=O)(=O)c1ccc(NS(=O)(=O)c2ccccc2[N+](=O)[O-])cc1 was read as Mtb growth 2%.
Screening O=C(O)CCSc1nc2ccccc2[nH]1 returned Mtb growth inactive.
`COc1ccc(Cl)cc1S(=O)(=O)N1c2ccccc2CC1C` (stereo not drawn) gave Mtb growth inactive.
For COC(=O)C1=CN(C(C)C)C=C(C(=O)OC)C1c1cccc(F)c1 the results were Mtb growth 4%.
`COC(=O)c1ccc(NC(=O)c2cccc(C)c2OC)cc1` gave Mtb growth 1%.
CCOc1ccccc1NC(=O)C(=O)Nc1ccccc1OCC was read as Mtb growth inactive.
`Cc1ccc2nsnc2c1S(=O)(=O)N1CCOCC1` gave Mtb growth inactive.

Taken from the entries so far (4 entries):
For COC(=O)C1=CN(C(C)C)C=C(C(=O)OC)C1c1cccc(F)c1 the results were Mtb growth 4%.
`COC(=O)c1ccc(NC(=O)c2cccc(C)c2OC)cc1` gave Mtb growth 1%.
CCOc1ccccc1NC(=O)C(=O)Nc1ccccc1OCC was read as Mtb growth inactive.
`Cc1ccc2nsnc2c1S(=O)(=O)N1CCOCC1` gave Mtb growth inactive.

Source: PubChem BioAssay
